# TRPML1 blocker: blocks the human TRPML1 channel | TRPML1-inducible cells, Ca2+ dye fluorescence, FDSS; hits give low values; inhibition of EC80 agonist-evoked calcium signal | activity change, negative = inhibition, % (concentration not given with the values) | hit rate 0.02% among 390,000; in the data active means activity change below about -50%; inconclusive means about -30% to -50%; inactive means above about -30%;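 note: stimulus is agonist 54-4 at its EC80 concentration; % is set by controls: 0 for no effect and ±100 for the full control effect; compound concentration not given in the record; the text of the record puts the active cut at -80%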
#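 TRPML1-DL cells, Tet-induced overnight (~16 h, 37 °C) at 1,500 cells/well, were loaded with Ca8 no-wash dye plus quencher for 45-90 min at room temperature. Compounds were pinned during FDSS kinetic reading; agonist 54-4 at EC80 (4 uM final) then added.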
# Six1-Eya2 inh: inhibitors of human Six1/Eya2 interaction; AlphaScreen GST-Six1/His-Eya2 binding, biochemical; hits give low values; control for the full effect not named in the record; activity change, % (concentration not given with the values); hit rate 0.56% among 360,000; AID 651725; Q15475+O00167; in the data active = activity change below about -65%; inconclusive = about -30% to -65%; inactive = above about -30%; note: % is set by controls: 0 for no effect and ±100 for the full control effect
# Target sequence (O00167 whole entry, looked up): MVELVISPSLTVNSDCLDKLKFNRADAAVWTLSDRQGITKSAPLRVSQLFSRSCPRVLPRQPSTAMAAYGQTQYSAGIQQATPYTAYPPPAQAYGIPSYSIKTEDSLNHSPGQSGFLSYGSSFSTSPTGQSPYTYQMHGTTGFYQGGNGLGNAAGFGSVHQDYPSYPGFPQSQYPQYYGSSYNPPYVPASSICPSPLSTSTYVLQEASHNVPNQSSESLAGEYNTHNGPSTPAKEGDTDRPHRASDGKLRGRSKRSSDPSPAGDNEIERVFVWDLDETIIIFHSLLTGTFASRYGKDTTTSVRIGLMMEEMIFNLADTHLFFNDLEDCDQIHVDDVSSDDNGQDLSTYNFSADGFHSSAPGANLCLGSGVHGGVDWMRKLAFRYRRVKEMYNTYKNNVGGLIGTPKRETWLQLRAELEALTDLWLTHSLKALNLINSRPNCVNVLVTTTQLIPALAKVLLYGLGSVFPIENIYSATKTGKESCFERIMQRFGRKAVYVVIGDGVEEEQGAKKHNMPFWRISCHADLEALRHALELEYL
# Target sequence (Q15475 whole entry, looked up): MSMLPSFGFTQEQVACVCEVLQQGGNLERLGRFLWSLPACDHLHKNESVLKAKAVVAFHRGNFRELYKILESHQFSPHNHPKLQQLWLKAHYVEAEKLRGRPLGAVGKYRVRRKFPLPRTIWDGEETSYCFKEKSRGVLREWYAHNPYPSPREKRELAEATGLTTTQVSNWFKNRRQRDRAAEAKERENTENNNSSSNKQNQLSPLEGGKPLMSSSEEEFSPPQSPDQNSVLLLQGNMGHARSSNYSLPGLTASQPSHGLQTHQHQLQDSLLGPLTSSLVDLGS
#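 GST-Six1 + His-Eya2 (5X stock: 250/500 nM); Tris pH 8.0, 300 mM NaCl, 0.05% BSA, 0.02% Tween 20; GSH donor/Ni acceptor beads; 1 h 37 °C dark; AlphaScreen readout.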
# PINK1 modulator: modulators of PINK1 expression; PINK1 immunofluorescence, high-content cytometry, 24 h; Potency, µM (highest dose often 76.6 µM), for the others: at the top dose activation (PINK1 increase), hits mostly activators; hit rate 0.2% among 410,000; active = well fitted activation curve with a large enough effect; inconclusive = small, poorly fitted or top-dose-only effect; inactive = flat fitted curve, though single readings scatter; cell line not stated here;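 note: potency is the fitted concentration of half-maximal effect; % of control where 0% means no effect; nearly all actives have a fitted effect of over 65% in size; a mitochondrial uncoupler was the plate control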
#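 A stable cell line was treated with compounds at 5 concentrations for 24 hours, with CCCP as control. PINK1 levels and mitochondrial localization were measured by immunofluorescence with mitochondrial, cell and nuclear markers after fixation, read by laser-scanning cytometry.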
# D2 ag: activates the human D2 dopamine receptor | DiscoveRx PathHunter D2 beta-arrestin, luminescence, 90 min; 100% = 57 uM dopamine signal | activation, % (test concentration not listed) | hit rate 0.084% among 360,000 | AID 624465; in the data active = activation above about 40%; inconclusive = about 15% to 40%; inactive = below about 15%; note: compound concentration not given in the record; the text of the record calls up to 30% inactive
#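 Agonist mode: compounds alone added to overnight-plated D2 PathHunter cells for 90 min at 37 C, with 57 uM final dopamine (EC100) defining full response. Beta-arrestin recruitment detected by chemiluminescent reagent, read after 1 h at ambient temperature.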
# D2 potentiator: human D2 receptor positive allosteric modulation | hit rate 0.23% among 360,000 | potentiation, % (test concentration not listed) | DiscoveRx D2 beta-arrestin cells, luminescence, 90 min; 100% = 57 uM dopamine signal; active = potentiation of 50% or more; inconclusive = 30% to 50%; inactive = 30% or less;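 note: compound concentration not given in the record; tested on top of an EC20 dose of dopamine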
#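 PathHunter beta-arrestin assay in DiscoveRx D2 cells. Compounds were added with an EC20 of dopamine (50 nM final) for 90 min at 37 deg C. Luminescence was read 1 h after detection reagent, with 57 uM dopamine as the EC100 control.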
# TRPML1 ag: activates the human TRPML1 channel. hit rate 0.12% among 410,000. TRPML1-expressing cells, Ca2+ dye fluorescence, FDSS; host cell line not named in the record; reference of the full effect not given here. activation, % (no concentration beside the values). AID 624414. Q9GZU1; in the data active = activation above about 50%; inconclusive = about 30% to 50%; inactive = below about 30%; note: 0% is about no effect; the text of the record puts the active cut at 80%
#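 Calcium fluorescence on an FDSS kinetic reader gave the read-out. Tet-induced TRPML1-DL cells were plated overnight, dye-loaded (Ca8 with quencher, 45-90 min, room temperature, dark), then read 110 s after compound addition, and again 110 s after 4uM final 54-4 (EC80).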
# Numbers without * were called inactive; ? = inconclusive; · = no result given; [ ] = remark or other dose. The order is random, and some 1% of all compounds hit somewhere here.
# Value order – TRPML1 blocker | Six1-Eya2 inh | PINK1 modulator | D2 ag | D2 potentiator | TRPML1 ag
1. Cc1ccc(C)c(S(=O)(=O)N2CCCOC2CNC(=O)C(=O)NCCCn2ccnc2)c1 (stereo unspecified)
    6 | -9 | -2.6% | 1.0 | -4 | -0.1
2. CC(=O)C1=C(C)NC(C)=C(C(C)=O)C1c1cccs1
    -8 | 3 | 1.5% | -3.6 | 6 | 0.1
3. CC(=O)c1ccc(OCCCC(=O)Nc2cccc(S(=O)(=O)N3CCOCC3)c2)cc1
    -11 | -3 | -1.8% | -2.2 | -4 | 1.9
4. CCCCP(=O)(c1ccccn1)c1ccccn1
    -11 | -2 | -0.2%[38.3 µM] | 1.3 | 4 | -0.1
5. C#CCNC(=O)C1=C[C@@H](c2ccc3c(c2)OCO3)C[C@@H](OCc2ccc(CO)cc2)O1
    13 | 8 | 0.0% | -6.2 | -4 | 0.3
6. O=[N+]([O-])c1cc(-c2nc(-c3ccncc3)no2)ccc1NCc1ccccc1
    -23 | · | 12% | · | · | -0.2
7. CCCOc1ccc(NC(=O)CC2C(=O)N(Cc3ccccc3)C(=S)N2Cc2cccs2)cc1 (stereo unspecified)
    -3 | 2 | 8.2% | 1.0 | -1 | 1.5
8. CN(C(=O)COn1nnc2ccc(Cl)cc21)C1CCS(=O)(=O)C1 (stereo unspecified)
    13 | 8 | -1.0% | -5.1 | -5 | 0.2
9. COc1ccc(S(=O)(=O)NCC(c2ccco2)S(=O)(=O)c2ccc(C)cc2)cc1C (stereo unspecified)
    24 | · | -1.4% | · | · | 3.0
10. COc1ccccc1/C=C(/NC(=O)c1ccccc1)C(=O)NCCCn1ccnc1
    2 | -1 | -1.5% | -3.0 | -8 | -0.1
11. O=C(Nc1ccc(CN2CCCCC2)cc1)c1c(F)c(F)c(F)c(F)c1F
    24 | 8 | 0.7% | -6.9 | -13 | 0.9
12. CC(=O)Oc1ccccc1C1OC(=O)c2ccccc2N1C(C)=O (stereo unspecified)
    -11 | 5 | 0.1% | 0.2 | -2 | -0.5
13. COc1ccc(-c2n[nH]c(=S)n2-c2ccc3c(c2)OCCO3)cc1OC
    15 | 2 | -2.9% | 4.2 | -10 | 1.0
14. O=C(/C=C/c1ccco1)NC(=S)Nc1ccccc1
    1 | 1 | 8.3% | 1.9 | -8 | -0.9
15. O=C1CSc2ccc(S(=O)(=O)NCc3ccccc3)cc2N1
    -1 | 10 | -0.6% | -2.5 | -3 | 0.3
16. COc1ccc(-c2noc(CC(=O)Nc3ccc(F)cc3F)n2)cc1
    11 | · | 1.8% | · | · | 0.2
17. COc1ccc2cc3cc(C(=O)NCc4ccccn4)oc3nc2c1
    5 | -20 | 7.2% | 3.4 | -2 | -0.4
18. CC(C)COc1ccc(-c2nn(-c3ccccc3)cc2CO)cc1
    27 | -3 | 5.5% | 3.1 | -12 | 3.2
19. N#C/C(=C/c1ccncc1)c1nc2ccccc2s1
    -6 | 0 | 4.7% | 7.6 | -7 | 5.6
20. CC12C=CC(=O)C=C1CCC1C2C(=O)CC2(C)C1CCC2(O)C(=O)CO (stereo unspecified)
    4 | -4 | 2.0% | 11 | -9 | -0.3
21. CCCCc1ccc(-c2csc(/C(C#N)=C\c3ccco3)n2)cc1
    7 | 19 | 0.0% | 0.7 | -5 | 3.6
22. CCCc1cc(=O)oc2cc(OCC(=O)NCCCN3CCOCC3)c(Cl)cc12
    -14 | -24 | 3.1% | -1.2 | -19 | 0.9
23. O=C(Nc1ccccc1-c1nc2ccccc2[nH]c1=O)c1cccs1
    -2 | -21 | 0.9% | -0.9 | -3 | -0.5
24. CC(C(=O)NCCS(=O)(=O)c1ccc(Cl)cc1)S(=O)(=O)c1ccc(Cl)cc1 (stereo unspecified)
    -13 | 2 | -1.7% | 0.4 | -16 | -0.1
25. COc1ccccc1/C=N/NC(=O)CCn1cnc2ccccc21
    -12 | -12 | 0.8% | -1.7 | -4 | 0.3
26. Cc1ccc(C(=O)/C=C/c2c(C)nn(-c3ccccc3)c2Cl)cc1
    -6 | 7 | -2.5% | -4.7 | -7 | 2.6
27. O=C(NC1CCCC1)C(c1ccccc1F)N(C(=O)c1csnn1)c1ccccc1 (stereo unspecified)
    -10 | -2 | 3.7% | -3.5 | -8 | 0.2
28. CN=c1scc(-c2ccc([N+](=O)[O-])cc2)n1/N=C/c1ccco1
    32 | -10 | 0.9% | -0.4 | 8 | 0.5
29. Cc1cc(NC(=O)/C=C/c2ccc(F)cc2)n(-c2nc3ccccc3[nH]2)n1
    -6 | 2 | 4.8% | 1.5 | -3 | -1.0
30. CC(=O)Nc1ccc(CN2CCCC(CO)(Cc3cccc(Cl)c3)C2)cc1 (stereo unspecified)
    11 | 0 | -1.0% | 1.3 | -16 | 0.3
31. COc1ccccc1Oc1cn[nH]c1-c1ccc(OCC(=O)NN)cc1O
    · | -22 | 0.9% | 1.4 | -7 | ·
32. CN(C)c1ccc(-c2csc(C(C)(O)c3ccc(F)c(F)c3)n2)cc1 (stereo unspecified)
    · | ? | 12% | -1.8 | -2 | -0.6
33. CCOc1ccc(N(C)C(CNS(=O)(=O)c2ccccc2)c2ccccc2)cc1 (stereo unspecified)
    20 | · | 2.6% | · | · | 5.0
34. COC(=O)c1cc(C(=O)OC)n(Cc2ccc(F)cc2)c1C
    11 | -7 | 7.6% | 0.0 | -5 | -0.3
35. COC(=O)Cn1c(=NC(=O)c2ccc(Cl)s2)sc2cc(F)ccc21
    -12 | 3 | 4.4% | -3.5 | -19 | 0.7
36. CC(=O)Nc1ccc(-c2ccnc3c2CC(C)(C(=O)NCC2CCOCC2)O3)cc1 (stereo unspecified)
    · | 5 | 4.9% | -3.3 | 5 | -0.2
37. O=C(CCl)NCCNC(=O)c1cc(OCC(F)(F)F)ccc1OCC(F)(F)F
    -15 | 6 | 2.4% | 9.3 | -4 | -0.7
38. Cc1ccc(-c2cc3ncc(C(=O)c4cc(Cl)c(C)cc4O)cn3n2)cc1
    0 | · | 0.4% | · | · | -0.1
39. CCCCn1c(N)c(N(CC(C)C)C(=O)CC(NC(=O)c2ccccc2)c2ccccc2)c(=O)[nH]c1=O (stereo unspecified)
    -5 | 1 | 2.1% | -2.9 | -17 | -1.0
40. O=c1[nH]c2ccccc2s1
    -4 | 7 | -0.5% | -3.8 | -4 | 0.1
41. Cc1cc(S(=O)(=O)N2CCCCC2CCNC(=O)C(=O)NC2CC2)ccc1F (stereo unspecified)
    -12 | -17 | 0.7% | 1.2 | -16 | 0.4
42. N#CC1=C(N)N2C(=C(C#N)C1c1cccc(Br)c1)Nc1ccccc12 (stereo unspecified)
    50 | 7 | 3.2µM* | 5.1 | 5 | -0.4
43. Cc1ccc(CN(C)CC(=O)Nc2ccccc2C(=O)NC2CC2)o1
    -10 | 4 | 1.6% | 0.6 | -2 | -0.8
44. CC(C)CNC(=O)C(=O)NCC1CCCN1S(=O)(=O)c1cccs1 (stereo unspecified)
    10 | 11 | 2.3% | 0.7 | -9 | -0.5
45. CCCCCCC(=O)O
    · | 8 | -0.8% | -3.7 | -30 | ·
46. COc1ccc(C2C(C(=O)c3ccco3)=C(O)C(=O)N2CCCn2ccnc2)c(OC)c1 (stereo unspecified)
    29 | 1 | 3.5% | -4.6 | -6 | -1.1
47. C=CCn1cnc2scc(-c3ccccc3)c2c1=O
    4 | -3 | 0.0% | 0.6 | -2 | -0.4
48. CSc1ccccc1NC(=O)CN1CCN(S(=O)(=O)c2ccccc2[N+](=O)[O-])CC1
    -12 | -14 | -0.2% | 0.2 | 13 | 2.2
49. O=C1c2ccccc2NC(c2ccccc2F)N1NS(=O)(=O)c1ccccc1 (stereo unspecified)
    3 | 0 | 1.5% | -2.7 | -4 | -0.7
50. Cc1ccc(NC(=O)COC(=O)c2ccc(Cl)cc2)cc1S(=O)(=O)N(C)C
    -6 | -4 | 0.6% | 3.3 | -7 | 2.8

# Next structures follow.
# Value order – TRPML1 blocker | Six1-Eya2 inh | PINK1 modulator | D2 ag | D2 potentiator | TRPML1 ag
51. CCc1nnc(NS(=O)(=O)c2ccc(NC(=O)CCC(=O)O)cc2)s1
    0 | 3 | 0.9% | -3.3 | -4 | -0.3
52. COc1ccc(C2c3c(oc4ccccc4c3=O)C(=O)N2CC2CCCO2)cc1 (stereo unspecified)
    -5 | 5 | · | -2.3 | -20 | 0.2
53. COc1ccccc1N(CC(=O)NCc1ccco1)C(=O)CCC(=O)Nc1ccccn1
    18 | 3 | 0.8% | -0.8 | 3 | -0.4
54. Cc1ccc(OCCn2c(=O)n(C)c3ccccc32)cc1
    34 | -1 | 0.8% | 5.7 | -4 | 6.0
55. CCOc1cc(C)ccc1OCc1nnc(SCC(=O)Nc2cccc(C(=O)O)c2)n1-c1ccccc1
    17 | -1 | 2.3% | -3.7 | 1 | 0.4
56. Cc1ccc2c(c1)C(=O)C(=O)N2Cc1ccccc1
    -11 | -9 | 8.1% | -13 | -26 | -0.6
57. Nc1nc(N)c(N=Nc2ccc(Cl)cc2)c(=O)[nH]1
    -1 | -15 | 4.6% | 3.5 | -5 | 0.4
58. COc1ccc(NC(=O)c2ccc(-c3ccc(C(C)=O)cc3)o2)cn1
    11 | -1 | 1.4% | -2.5 | 7 | 0.5
59. COc1ccc2c(c1)c1c(c(=O)n(-c3ccc(F)c(Cl)c3)c(=O)n1CC(=O)N1CCCC1)n2C
    0 | · | 0.4% | · | · | -0.1
60. CCN(CC)S(=O)(=O)c1cc(C(=O)NCCN2CCOCC2)ccc1Cl
    5 | 2 | 0.0% | -0.6 | -5 | 0.0
61. Cc1ccc(N2C(=O)N(CC(=O)Nc3c(C)cc(C)cc3Cl)C(=O)C2C)cc1 (stereo unspecified)
    -23 | 7 | 0.5% | -3.7 | -6 | 1.4
62. Cc1ccc(CNC(=O)C2CCCN(S(=O)(=O)c3cccnc3)C2)cc1 (stereo unspecified)
    -9 | 0 | -0.3% | -1.6 | 9 | -0.7
63. Cc1c2ccccc2cc(Cc2ccccc2)[n+]1C
    · | -1 | 5.2% | -5.2 | -23 | ·
64. Cc1cc(=O)oc2cc(NC(=O)c3cc([N+](=O)[O-])ccc3N3CCOCC3)ccc12
    -2 | -16 | 3.1% | -4.1 | -5 | -0.3
65. O=C1C2C3CCC(O3)C2C(=O)N1c1cccc(O)c1 (stereo unspecified)
    3 | 2 | 2.4% | -4.9 | -4 | 0.2

# High-throughput results deposited in PubChem by National Center for Advancing Translational Sciences (NCATS).
